MARV entry inh: Marburg virus entry inhibition; Marburg virus pseudotype entry/binding inhibition, cell-based; control for the full effect not named in the record; many of its hits are not listed in these tables; Potency, µM (series often up to 49.2 µM), inactives show at the top dose activity change, negative = inhibition, usual class: inhibitors; 18,000 compounds, 6.5% hits; AID 720532; active means well fitted inhibition curve with a large enough effect; inconclusive means small, poorly fitted or top-dose-only effect; inactive means no such curve, though single readings can be large or run the other way; tested in HEK293 cells; note: luciferase read-out
LASV entry inh: blocks Lassa virus binding or cell entry | Potency, µM (series often up to 49.2 µM), inactives show top-dose activity change, negative = inhibition, actives largely listed as inhibitors | Lassa virus pseudotyped entry inhibition, cell-based qHTS; control for the full effect not named in the record; many of its hits are not listed in these tables | 18,000 compounds, 4.1% hits; active = well fitted inhibition curve with a large enough effect; inconclusive = small, poorly fitted or top-dose-only effect; inactive = no such curve, though single readings can be large or run the other way; tested in HEK293 cells; note: luciferase read-out
The depositor's hits bear a star; ? = inconclusive; · = not tested or not shown; & = joins results of further samples; [ ] = remark or other dose. % is set by controls: 0 for no effect and ±100 for the full control effect; potency is the fitted concentration of half-maximal effect. The list is partial. The share of hits here may be higher or lower than overall.

Start of the listing, in advance:
Second line of a record – MARV entry inh, LASV entry inh
> CSCC[C@H](N)C(=O)N[C@@H](CCCN=C(N)N)C(=O)N[C@@H](CC(C)C)C(=O)N[C@@H](Cc1ccccc1)C(=O)N[C@H](C(=O)O)C(C)C
  -5%, 6%
> COc1cc(OC)c2nc(-c3cc4c(c(OC)c3)OCCN(Cc3cn(C)nc3C)C4)cc(C)c2c1
  -30%, ?
> C=C1C2CCC3[C@@](CC[C@@H]4C(C(=O)O)CC(OC5OC(CO)C(OS(=O)(=O)O)C(OS(=O)(=O)O)C5OC(=O)CC(C)C)C[C@]34C)(C2)C1O (stereo partly specified)
  1%, 9%

The list itself, from the start:
Second line of a record – MARV entry inh, LASV entry inh
> CSCC[C@H](N)C(=O)N[C@@H](CCCN=C(N)N)C(=O)N[C@@H](CC(C)C)C(=O)N[C@@H](Cc1ccccc1)C(=O)N[C@H](C(=O)O)C(C)C
  -5%, 6%
> COc1cc(OC)c2nc(-c3cc4c(c(OC)c3)OCCN(Cc3cn(C)nc3C)C4)cc(C)c2c1
  -30%, ?
> C=C1C2CCC3[C@@](CC[C@@H]4C(C(=O)O)CC(OC5OC(CO)C(OS(=O)(=O)O)C(OS(=O)(=O)O)C5OC(=O)CC(C)C)C[C@]34C)(C2)C1O (stereo partly specified)
  1%, 9%
> C[C@H]1CC[C@]2(NC1)O[C@H]1C[C@H]3[C@@H]4CC[C@H]5C[C@@H](O[C@@H]6O[C@H](CO)[C@H](O[C@@H]7O[C@H](CO)[C@@H](O)[C@H](O[C@@H]8OC[C@@H](O)[C@H](O)[C@H]8O)[C@H]7O[C@@H]7O[C@H](CO)[C@@H](O)[C@H](O)[C@H]7O)[C@H](O)[C@H]6O)CC[C@]5(C)[C@H]4CC[C@]3(C)[C@H]1[C@@H]2C
  4.5µM*, 14µM*
> COc1cccc(-c2cc(=O)c3ccc(OC)cc3o2)c1
  11%, -7%
> CN(C)c1cc(NC(=O)CNC(C)(C)C)c(O)c2c1C[C@H]1C[C@H]3[C@H](N(C)C)C(=O)C(C(N)=O)=C(O)[C@@]3(O)C(=O)C1=C2O
  -11%, -12%
> C[C@@H](CN1CCC(Cc2ccccc2)CC1)[C@@H](O)c1ccc(O)cc1
  ?, -4%
> CC1=CC[C@@H](COc2ccccc2)O[C@@]2(C1)C(=O)N(CC1CC1)c1ccccc12
  20%[8.59 µM], 6%[8.59 µM]
> C=CCC1(C(C)CCC)C(=O)N=C(S)NC1=O (stereo unspecified)
  -9%, -18%
> CCCCN(CCCC)Cc1cc(=O)oc2ccccc12
  -19%, 15%
> CC1=C(C(=O)OCCN(Cc2ccccc2)c2ccccc2)C(c2cccc([N+](=O)[O-])c2)C(P2(=O)OCC(C)(C)CO2)=C(C)N1 (stereo unspecified)
  ?, ?
> O=C(NC[C@H](O)c1ccccc1)c1ccccc1
  50%[activator], 34%[activator]
> C=C(C)[C@H]1[C@H]2OC(=O)[C@@H]1[C@]1(O)C[C@H]3O[C@]34C(=O)O[C@H]2[C@@]14C
  29%[17.8 µM], 0%[17.8 µM]
> CSc1ccc(/C=C2/C(C)=C(CC(=O)O)c3cc(F)ccc32)cc1
  6%, -15%
> COC(=O)C1=NN=C(C(=O)OC)[C@@]2(C)c3ccccc3NC12 (stereo partly specified)
  44%[activator][8.59 µM], 13%[8.59 µM]
> CCOC(=O)[C@@H]1CSCCS(=O)(=O)N1C(=O)[C@@H](NC(=O)OC(C)(C)C)[C@@H](C)CC
  12%, 13%
> Nc1ncnc2c1nc(Br)n2[C@H]1O[C@H]2COP(=O)(O)O[C@H]2[C@@H]1O
  -22%, -22%
> COC[C@@H](O)[C@H]1OCc2cccc(OC)c2[C@H]1C=Cc1ccccc1
  8%[8.59 µM], -19%[8.59 µM]
> CC(C)c1cc(/C=C(\C#N)C(=O)NCCCc2ccccc2)cc(C(C)C)c1O
  ?, 25µM*
> COc1ccc2c(c1)O[C@@H](c1ccc3c(c1)OCO3)[C@H](OC(=O)NCCOc1ccccc1)C2=O
  1%, 1%
> N[C@H](C(=O)O)[C@@H]1C[C@@H]1C(=O)O
  1%&2%, 0%&-15%
> COc1ccc2c(c1)CCc1cnc(-n3ncc(C(=O)NCCN4CCOCC4)c3C)nc1-2
  9%, 4%
> COc1ccc(OC)c(-c2ccc(C(=O)O)o2)c1
  18%[107 µM], -6%[107 µM]
> CNCC(=O)c1ccc(O)c(O)c1
  16µM*, -15%
> CCC(C)(C)O
  9%, 0%
> CC(=O)OC[C@H]1O[C@H](C#Cc2ccccc2)C=C[C@@H]1OC(C)=O
  21%[8.59 µM], -10%[8.59 µM]
> COC(=O)C1=C(C)C(=O)[C@]2(O)c3ccccc3N(C)[C@]12C
  18%[8.59 µM], -18%[8.59 µM]
> COc1cc(OC)c2c(c1)OC(c1ccc(OC)c(OC)c1)C(O)C2 (stereo unspecified)
  7%, 5%
> NCCCCCCCCCCNS(=O)(=O)c1cccc2c(Cl)cccc12
  10%, ?
> COC(=O)C(C)c1ccc(C(=O)c2cccs2)cc1 (stereo unspecified)
  4%, 0%
> C[C@H]1COc2cccc(NCCO)c2S(=O)(=O)N1
  18%, -19%
> C[C@H]1C(c2ccccc2)=NN(c2ccccc2)[C@@H]1CO
  -4%, -26%
> CC1(C)S[C@@H]2[C@H](NC(=O)[C@H](N)c3ccccc3)C(=O)N2[C@H]1C(=O)OCOC(=O)[C@@H]1N2C(=O)C[C@H]2S(=O)(=O)C1(C)C
  2%, -11%
> C=C1c2c(Cl)ccc(O)c2C(O)=C2C(=O)[C@]3(O)C(O)=C(C(N)=O)C(=O)C(N(C)C)C3C(O)C12 (stereo partly specified)
  -28%, ?
> C[C@@H]1CN(Cc2ccc3c(c2)CN(Cc2nc(-c4ccccc4)cs2)CCO3)C[C@H](C)O1
  -16%, -6%
> CC(C)=CCCC(C)=CCN1C(=O)[C@@]2(CC(C)=C[C@@H](COCc3ccccc3)O2)c2ccccc21
  6%[8.59 µM], -22%[8.59 µM]
> CNC[C@H](O)[C@@H](O)[C@H](O)[C@H](O)CO
  -13%, -4%
> c1csc(C2(N3CCCCC3)CCCCC2)c1
  -10%, -2%
> C[C@H](CO)NS(=O)(=O)c1cccc(Cl)c1F
  19%, 14%
> COC(=O)C12CC3=C[C@H](CC3=O)Cc3ccccc3[C@@H]1CNC2=O (stereo partly specified)
  -2%&2%, 0%&6%
> CNCCC=C1c2ccccc2C=Cc2ccccc21
  5µM*, ?
> CC#CCN1C(=O)N(C)C(c2ccccc2)C(C(=O)OC)=C1C (stereo unspecified)
  -4%[8.59 µM], 10%[8.59 µM]
> CC(C)=CCN1C(=O)[C@]2(O[C@H](COc3ccccc3)CC3=CCCC32)c2c(Br)cccc21 (stereo partly specified)
  -17%[8.59 µM], -9%[8.59 µM]
> CC1=C(/C=C/C(C)=C/C=C/C(C)=C/CO)C(C)(C)CCC1
  -30%&-24%&6%&5%, -19%&-10%&-5%&-9%
> COc1ccccc1CNCCCCCCNCCCCCCCCNCCCCCCNCc1ccccc1OC
  7.9µM*, ?
> Cn1ccc2c(-c3ccc(C(C)(C)C)cc3)cc3c(c21)C1CCC3C1 (stereo unspecified)
  28%, -4%
> Clc1ccccc1C(c1ccccc1)(c1ccccc1)n1ccnc1
  11µM*, 13µM*
> COc1ccc(-c2cc(C(=O)N3CCc4c(cnc(C)c4CNC(=O)c4ccsc4)C3)[nH]n2)cc1
  -26%, 4%
> COC(=O)C1=C(C)N(Cc2ccccc2)C(=NCc2cc(OC)c(OC)c(OC)c2)NC1c1cccc(F)c1 (stereo unspecified)
  -17%[8.59 µM], ·
> COC(=O)N1C(C)=Cc2ccccc2C1C/C(C)=C/C(C)=O (stereo unspecified)
  7%, 3%

Complete entries, quoted from the list. Order of screens: MARV entry inh	LASV entry inh
Shown for Cn1ccc2c(-c3ccc(C(C)(C)C)cc3)cc3c(c21)C1CCC3C1 (stereo unspecified) → 28%	-4%
Shown for COc1ccc(-c2cc(C(=O)N3CCc4c(cnc(C)c4CNC(=O)c4ccsc4)C3)[nH]n2)cc1 → -26%	4%
Shown for COC(=O)N1C(C)=Cc2ccccc2C1C/C(C)=C/C(C)=O (stereo unspecified) → 7%	3%
Shown for CC(C)=CCN1C(=O)[C@]2(O[C@H](COc3ccccc3)CC3=CCCC32)c2c(Br)cccc21 (stereo partly specified) → -17%[8.59 µM]	-9%[8.59 µM]
Shown for COC(=O)C1=C(C)N(Cc2ccccc2)C(=NCc2cc(OC)c(OC)c(OC)c2)NC1c1cccc(F)c1 (stereo unspecified) → -17%[8.59 µM]	·

New compounds follow.
Second line of a record – MARV entry inh, LASV entry inh
> CN(C)Cc1ccccc1-c1nc(N2CCOCC2)c2ccccc2n1
  18µM*, -11%
> COC(=O)C1=CO[C@@H](C)[C@H]2CN3CCc4c([nH]c5ccccc45)[C@@H]3C[C@H]12
  ?, -5%&-28%[17.8 µM]
> Cc1c(C(=O)N(C)C2CCOC2)sc2ncnc(NCc3ccc4c(c3)OCO4)c12 (stereo unspecified)
  4%, -2%
> NCc1ccc(-c2nc(-c3ccc(Cl)c(O)c3)c(-c3ccncc3)[nH]2)cc1
  ?, 20%
> O=c1ccc2cc3ccoc3cc2o1
  11%, -7%
> C=CCOC(=O)NC(CC(=Nc1ccc(OC)cc1)C(=O)OC)c1ccccc1 (stereo unspecified)
  17%, 4%
> COC(=O)c1csc(C(=O)c2c[nH]c3ccccc23)n1
  -2%&31%, -1%&0%
> O=[N+]([O-])c1ccc(F)c([N+](=O)[O-])c1
  -4%, -16%
> CC1(C)OC[C@@H](COC(=O)CCc2ccc(OC[C@@H](O)CNCCNC(=O)N3CCOCC3)cc2)O1
  7%&7%, -15%&4%
> CC1CCC(C(C)C)C(OC(=O)c2ccccc2N)C1 (stereo unspecified)
  ?, ?
> CNc1ccc2oc(C[C@H]3O[C@]4(CC[C@H]3C)O[C@H]([C@H](C)C(=O)c3ccc[nH]3)[C@H](C)C[C@H]4C)nc2c1C(=O)O
  4.5µM*, 3.5µM*
> Cc1cnc(CNc2ccnc(-c3ccc(N(C)C)cc3)n2)cn1
  11%, 60%[activator]
> Cc1ccccc1-c1nc(NCc2cccnc2)c2ccccc2n1
  1%, -5%
> CCOC(=O)Cc1cccc(-c2cc(CCCCCCc3ccc(O[C@H]4O[C@H](COC(C)=O)[C@@H](OC(C)=O)[C@H](OC(C)=O)[C@@H]4OC(C)=O)c(-c4cccc(CC(=O)OCC)c4)c3)ccc2O[C@H]2O[C@H](COC(C)=O)[C@@H](OC(C)=O)[C@H](OC(C)=O)[C@@H]2OC(C)=O)c1
  -4%, 1%
> COc1cccc2c1OC(=O)CC2c1ccc(C)cc1 (stereo unspecified)
  -20%, ?
> CC(O)CN(CCN(CC(C)O)CC(C)O)CC(C)O (stereo unspecified)
  1%, -17%
> CC(C)C[C@H](NC(=O)[C@H](Cc1ccccc1)NC(=O)CNC(=O)[C@H](CS)N(C(=O)[C@@H](N)Cc1ccc(O)cc1)C(C)(C)C)C(=O)N([C@H](C(=O)O)[C@H](C)O)C(C)(C)C
  21%, 9%
> COC(=O)C1=C(C(=O)OC)[C@@H]2N(Cc3ccccc3)c3ccccc3[C@@]23C[C@@H](C(=O)OC)N(C(=O)Nc2ccc(C(F)(F)F)cc2)C3=N1
  38%[activator][8.59 µM], -20%[8.59 µM]
> COc1ccc(N2CCN(C(=O)c3cc(NC(C)=O)c4c(c3)ncn4CCc3ccccn3)CC2)cc1
  6%, -2%
> CCN1C(=O)N(C)C(c2ccccc2)C(C(C)=O)=C1C (stereo unspecified)
  13%[8.59 µM], -21%[8.59 µM]
> COc1cc(OC)c([C@@H]2O[C@H](CO)[C@@H](O)[C@H](O)[C@H]2O)c(OC)c1
  -3%, 8%
> Cc1ccsc1CN1CCc2nnc(CCNC(=O)c3ccc(F)cc3)n2CC1
  0%, 7%
> CCC(O)CNC(=O)c1cnn(-c2nccc(-c3cc(C)sc3C)n2)c1C1CC1 (stereo unspecified)
  22%, -2%
> OC[C@H]1O[C@H](C#Cc2ccc(F)cc2F)C=C[C@H]1O
  ?, -16%[8.59 µM]
> NCCCCCCNS(=O)(=O)c1ccc2c(Cl)cccc2c1
  13µM*, 28µM*
> CC(C)(c1ccc(O)cc1)c1ccc(O)cc1
  -20%[107 µM], -26%[107 µM]
> Cn1c(-c2ccncc2)nc2cc(C(=O)N3CCCC3c3nccs3)cc(NC(=O)C3CCC3)c21 (stereo unspecified)
  -22%, -13%
> O=C1CS(=O)(=O)N(Cc2ccc(F)cc2)c2ccccc21
  ?, ?
> CC(=O)N[C@@H](CCC(N)=O)C(=O)O
  -10%, -16%
> CN1CC2CN(Cc3ccccc3)S(=O)(=O)C2C1 (stereo unspecified)
  24%, -16%
> COCC1CCCN(Cc2ccc3c(c2)CN(C(=O)c2cnn(C(C)C)c2)CCO3)C1 (stereo unspecified)
  ?, -29%
> CNC(=O)C[C@H]1C(=O)N(CCc2ccccc2)C[C@@H]1Cc1ccccc1
  24%, 24%
> COc1ccc(CCNc2ncnc3sc(C(=O)N4CCCCC4)c(C)c23)cc1OC
  0%, -1%
> COc1cc(C/C=C/c2ccccc2)c(OC)cc1O
  4%, -9%
> c1ccc2c(N3CCNCC3)nc(-c3ccoc3)nc2c1
  -2%, -10%
> CCN(CC)Cc1ccc(Nc2nccc(-c3cnn4ncccc34)n2)cc1
  ?, ?
> COc1cc(-c2cnc3ccccc3c2)cc2c1OCCN(C(=O)Cn1nccc1C)C2
  19%, -1%
> CC(C)[C@@H](CO[Si](C)(C)C(C)(C)C)N1CC=CS1(=O)=O
  13%, -27%
> COC(=O)C1=C2C=CCCN2C(=O)NC1c1ccccc1 (stereo unspecified)
  -17%[8.59 µM], -9%[8.59 µM]
> COc1ccc2c(c1)O[C@@H](c1cccc(C(F)(F)F)c1)[C@H](OC(=O)NCc1ccc3c(c1)OCO3)C2=O
  -13%, -10%
